Bioassay records (PubChem BioAssay)
BJeLR viability: kills HRASV12-expressing BJeLR cells. BJeLR (HRASV12) viability, CellTiter-Glo ATP luminescence, 48 h; reference of the scale not given here. inhibition, % (concentration not given with the values). hit rate 0.17% among 300,000;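 active = replicate mean above 50%; inconclusive = above 50% but judged a plate artefact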;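 note: 50 nL library stock added to about 25 µL; numbers are from one replicate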
Mtb hypoxia rep: Mtb hypoxia fluorescent reporter inhibition. M. tuberculosis hypoxia-regulated fluorescent reporter, fluorescence. fluorescence inhibition, % (test concentration not listed). hit rate 0.1% among 300,000;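 active = 35 to 45% if threefold the growth effect, above 45% if 1.5-fold the growth effect; inactive = the rest, general growth blockers included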;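 note: wells of about 50 µL received 100 nL stock; 0% = vehicle wells and 100% = reference inhibitor wells; whole bacteria with a GFP reporter of the hypoxia response; strong numbers were not always called active; many hits fall short of the cut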
Sa ugtP lethal: kills S. aureus RN4220 lacking UgtP; growth inhibition, % (concentration not given with the values); S. aureus RN4220 ugtP deletion, OD600 growth, 16 h; some inactives read as strong as hits; AID 1259309; hit rate 0.54% among 330,000;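 active = z-score under -3 and OD600 up to 0.15 on both plates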;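 note: plate controls were untreated wells for no effect and antibiotic for full effect; wells of about 80 µL received 100 nL stock; the first replicate is given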
PrP UTR inh: suppresses PrP 5' UTR mRNA reporter expression. cell-based PrP 5' UTR mRNA reporter, plate reader. inhibition, % (no concentration beside the values). hit rate 0.35% among 340,000;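 active = every replicate at 50% or more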;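 note: 0 = median of the neutral control wells; tested in H4 reporter cells; numbers are from one replicate; inactives centre near -14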
RN4220 kill: S. aureus RN4220 growth inhibition; AID 1259311; OD600, 16 h; inhibition, % (concentration not given with the values); hit rate 0.33% among 330,000;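 active = z-score of -3 or lower and OD600 up to 0.18 on both plates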;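 note: plate controls were untreated cells for no effect and reference antibiotic for full effect; stock transfer was 100 nL into about 80 µL; one replicate is shown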
Autofluor counter: counter-screen for toxin protease inhibitors: compound fluorescence; compound autofluorescence counterscreen, microsphere flow cytometry; stronger effect = higher value; AID 624483; hit rate 3.1% among 360,000; fluorescence intensity (concentration not given with the values);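 active = at least 3 SD above the mean of all compounds, about 16000 in these data; inconclusive = too few beads counted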;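 note: 100 nL of 1 mM stock went into each well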
Mtb hypoxia rep growth: also measured in Mtb hypoxia rep; calls as there; growth inhibition, %; measured here: M. tuberculosis growth (absorbance);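 0% = vehicle and 100% = reference antibiotic; read after six days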
The depositor's hits bear a star; ? = inconclusive; . = not tested or not shown. An unsorted share of the library; 3.9% or so of the library scored in one or more.

1) COc1cc(O)c(C(CCN2CCN(c3ccccc3)CC2)c2cc(OC)c(OC)c(OC)c2)c(OC)c1 (stereo unspecified)
2) CC#CCN1c2ccccc2[C@]23CC(C(=O)OC)N(C(=O)c4cc(C)oc4C)C2=NC(C(=O)OC)=C(C(=O)OC)C13 (stereo partly specified)
3) CC(=O)N1CCN(S(=O)(=O)c2ccc(F)c(Cl)c2)CC1
4) Nc1ncncc1-c1ccc2ccccc2c1
5) COc1cccc(NC(=O)c2cc(-c3ccc(C)o3)nc3ccccc23)c1
6) O=C1OCc2cc(N=Nc3c(O)[nH]c(=O)[nH]c3=O)ccc21
7) O=c1c2c(-c3cccs3)csc2ncn1/N=C/c1ccc(OC(F)F)cc1
8) Cc1cc(C)cc(N(C)S(=O)(=O)c2nnc(NC(=O)C(C)C)s2)c1
assay / compound,1,2,3,4,5,6,7,8
BJeLR viability,-4,.,0,9,8,-1,0,-3
Mtb hypoxia rep,6,18,-3,4,6,13,.,-5
Mtb hypoxia rep growth,19,10,3,6,1,10,.,6
Sa ugtP lethal,2,7,4,0,7,4,.,2
PrP UTR inh,11,.,-14,-12,-23,0,-20,-14
RN4220 kill,0.6,8.5,6.4,7.4,6.1,3.0,.,1.8
Autofluor counter,4277,.,5888,4786,4558,4447,5862,3857

9) COc1ccc(C2(C)NC(=O)N(CC(=O)Nc3ccc4c(c3)CCC4)C2=O)cc1OC (stereo unspecified)
10) CCC(=O)Nc1cc(SCCO)cc([N+](=O)[O-])c1
11) C/C(=N\NC(=O)c1ccc(Cl)cc1)c1cccc(NC(=O)C(C)C)c1
12) N=c1c2c(n(Cc3ccc(F)cc3)c3c1CCC3)CCC2
13) c1ccc2nc(N3CCOCC3)cnc2c1
14) Cc1ccc(C(=O)N2CCC(Cc3ccccc3)CC2)cc1S(=O)(=O)N1CCOCC1
15) COc1ccc(CC(=O)NCC2CCCN(Cc3ccccc3OC)C2)cc1 (stereo unspecified)
16) CC(C)N1C(=O)CCC1C(=O)NC1CCCC1 (stereo unspecified)
assay / compound,9,10,11,12,13,14,15,16
BJeLR viability,.,7,8,-2,-1,.,-11,14
Mtb hypoxia rep,22,-4,.,0,4,1,12,2
Mtb hypoxia rep growth,8,-5,.,-1,11,7,5,-4
Sa ugtP lethal,0,1,.,5,-4,3,8,2
PrP UTR inh,8,-8,-5,-5,-25,9,17,-16
RN4220 kill,3.0,-1.1,.,1.7,1.7,2.1,-0.4,2.5
Autofluor counter,4069,16916*,5138,7400,2878,5608,?,20690*

17) COC(=O)C1=C(C)N(CCc2ccc(OC)c(OC)c2)C(=O)C1
18) Cc1cc(C(=O)NC2CCCc3ccccc32)ccc1[N+](=O)[O-] (stereo unspecified)
19) CCn1nc(C)c(CN2CCN(Cc3ccc(OC)c(C)c3C)C(CCO)C2)c1C (stereo unspecified)
20) Cc1c(C(=O)Nc2ccc(S(N)(=O)=O)cc2)oc2ccc(Cl)cc12
21) CCOc1ccc(Oc2ccc(Cl)cc2NC(=O)CCNC(C)=O)cc1
22) CCOC(=O)c1oc2cccc(OCC(O)CNC(C)C)c2c1C (stereo unspecified)
23) Cc1cccc(-n2cc(-c3ccccc3)c3c(N4CCOCC4)ncnc32)c1
24) COc1cccc(C(=O)OC(C)C(=O)Nc2ccc3c(c2)OCO3)c1 (stereo unspecified)
assay / compound,17,18,19,20,21,22,23,24
BJeLR viability,2,0,0,-1,-2,4,8,.
Mtb hypoxia rep,4,3,2,7,13,7,7,6
Mtb hypoxia rep growth,7,5,-1,-7,8,7,5,0
Sa ugtP lethal,-10,9,13,13,12,32,6,9
PrP UTR inh,1,4,-25,-9,-9,-14,-8,-26
RN4220 kill,5.7,5.6,1.5,6.1,1.7,-0.8,4.1,1.1
Autofluor counter,3268,3764,2669,4880,4677,10776,4139,3600

25) CCC(C(=O)OCc1csc(CC(=O)Nc2ccccc2C)n1)c1ccccc1 (stereo unspecified)
26) Cc1ccc(C(=O)NCC(c2ccc(F)cc2)N2CCOCC2)cc1 (stereo unspecified)
27) COc1cccc(Cn2cccc(NC(=O)Nc3cccc(C#N)c3)c2=O)c1
28) CC1CCN(S(=O)(=O)c2ccc3c(c2)oc(=O)n3CC(=O)N2CCc3ccccc3C2)CC1
29) O=C(Cc1nnc(NC(=O)c2ccccc2)s1)NN=Cc1cccc(O)c1
30) COc1ccccc1N1C(=O)C2C3C=CC(C3)C2(C)C1=O (stereo unspecified)
31) CCCc1cc(N2CCCC(C(=O)Nc3cc(Cl)ccc3OC)C2)n2ncnc2n1 (stereo unspecified)
32) CCOc1ccc(C(=O)NC2CCN(C(=O)Nc3ccccc3OC)CC2)cc1
assay / compound,25,26,27,28,29,30,31,32
BJeLR viability,.,-6,-2,-1,.,-7,.,-6
Mtb hypoxia rep,-10,0,-3,-1,1,7,-2,4
Mtb hypoxia rep growth,3,1,-4,1,2,10,4,7
Sa ugtP lethal,-11,3,-10,7,6,5,0,4
PrP UTR inh,14,-34,.,9,.,-14,-3,-1
RN4220 kill,-5.9,5.5,-5.2,2.9,-4.4,1.0,3.8,1.5
Autofluor counter,6197,4251,.,5494,.,2768,16461*,10094

33) Cc1ccc2occ(C(=O)c3ccco3)c(=O)c2c1
34) O=C(N/N=C\c1ccc(Oc2ccccc2)cc1)c1csnn1
35) CCn1nc(NC(=O)C2CCCO2)c2cc3cc(C)ccc3nc21 (stereo unspecified)
36) Fc1ccccc1/C=N/n1cc(-c2ccccc2)[nH]c1=S
37) CCOC(=O)/C=c1\s/c(=C\c2ccc(C#N)cc2)c(=O)n1CC(=O)Nc1cccc(C)c1C
38) O=C(O)c1cn(C2CC2)c2cc(N3CCN(S(=O)(=O)c4ccc5c(c4)OCCO5)CC3)c(F)cc2c1=O
39) CCOC(=O)c1nnc(-c2ccccc2)nc1NC
40) CC(C)C1N(C(=O)CN2CCCC2)CCN1S(=O)(=O)c1ccccc1 (stereo unspecified)
assay / compound,33,34,35,36,37,38,39,40
BJeLR viability,-3,4,-3,0,9,-3,-1,6
Mtb hypoxia rep,6,.,-8,.,.,.,4,7
Mtb hypoxia rep growth,9,.,-11,.,.,.,1,13
Sa ugtP lethal,-1,.,9,.,.,100*,7,9
PrP UTR inh,-23,-62,-16,-18,-7,-18,-13,-6
RN4220 kill,19,.,3.9,.,.,99*,3.4,8.3
Autofluor counter,6972,5275,1956,4255,4265,3463,.,4584

41) O=C(O)c1cc(NN=Cc2ccc(-c3ccccc3)cc2)ccc1Cl
42) CSC1=NC2(CCCCC2)CC12C=CC(=O)C=C2
43) O=C(NC(=S)Nc1cccc2c(O)cccc12)c1ccco1
44) C=CCN(C(=O)c1csnn1)C(C(=O)NCc1ccc(F)cc1)c1sccc1C (stereo unspecified)
45) O=C(NC(=S)N1CCN(c2ccc(O)cc2)CC1)c1cccs1
46) CC(=O)Nc1ccc(NC(=O)C(C)OC(=O)CC23CC4CC(CC(Br)(C4)C2)C3)cc1 (stereo unspecified)
47) COc1cc(OC)cc(C(=O)NCC(=O)OCC(=O)Nc2ccc3c(c2)OCO3)c1
48) O=C(CN1CCCCC1)Nc1nnc(-c2ccccc2)s1
assay / compound,41,42,43,44,45,46,47,48
BJeLR viability,.,-11,-1,-5,-11,.,0,-10
Mtb hypoxia rep,11,7,-4,3,-16,6,-7,.
Mtb hypoxia rep growth,7,2,-3,-6,5,8,7,.
Sa ugtP lethal,0,2,-26,15,-5,5,-2,8
PrP UTR inh,.,-12,-29,-6,-25,-15,14,-40
RN4220 kill,-2.5,2.1,-1.5,2.9,0.0,4.8,2.2,-1.7
Autofluor counter,.,4606,5718,3238,3143,3911,4065,2631

49) O=C(Nc1ccncc1)c1ccc(S(=O)(=O)Nc2ccccc2)cc1
50) C(=C/c1nccc2c1[nH]c1ccccc12)/c1ccc2c(c1)OCO2
51) O=S(=O)(c1ccccc1)N1CCc2ccccc21
52) O=C(COC(=O)CCc1nc2ccccc2n1-c1ccccc1)Nc1cccc(Cl)c1
53) COc1ccc(CCC(=O)Nc2nc3c(s2)CN(C)CC3)cc1OC
54) Cc1cccc(N(C(=O)c2csnn2)C(C(=O)NC(C)(C)C)c2ccncc2)c1 (stereo unspecified)
55) Cn1c(N)c(C(=O)COC(=O)C2CCCC2)c(=O)n(C)c1=O
56) COc1ccc(CCNC(=O)CCS(=O)(=O)c2ccc3c(c2)CCN3C(C)=O)cc1OC
assay / compound,49,50,51,52,53,54,55,56
BJeLR viability,3,10,9,-8,1,7,3,7
Mtb hypoxia rep,3,-7,12,8,2,6,-5,.
Mtb hypoxia rep growth,3,4,3,12,-2,4,-2,.
Sa ugtP lethal,4,5,5,6,1,8,11,6
PrP UTR inh,-9,-36,-17,-13,-25,-30,-1,-7
RN4220 kill,7.0,12,1.8,4.5,-0.8,3.6,1.4,0.1
Autofluor counter,4373,6596,4512,10769,4240,8120,4278,4886

57) CC(=O)Nc1ccc(NC(=O)CSc2nnc(NC(=O)C3CC(=O)N(c4ccc(F)cc4)C3)s2)cc1 (stereo unspecified)
58) O=C(NCCN1CCOCC1)c1csc2c1CCCCC2
59) COc1cccc(NC(=O)COC(=O)C2=NN(c3ccccc3)C(=O)CC2)c1
60) Cc1ccc(N2C(=O)CSC2c2cccnc2)cc1F (stereo unspecified)
61) CCc1cc(C=NC2CCCCC2)c(O)s1
62) CC(C)CCN1CCN(Cc2ccoc2)CC1CCO (stereo unspecified)
63) CN1C(=O)CC(Sc2ncccc2C(=O)O)C1=O (stereo unspecified)
64) Cc1ccccc1OCc1nnc(SCC(=O)Nc2ccc(N3CCOCC3)cc2)n1C
assay / compound,57,58,59,60,61,62,63,64
BJeLR viability,10,3,.,6,-9,9,7,9
Mtb hypoxia rep,2,10,2,1,-73,16,12,1
Mtb hypoxia rep growth,7,11,9,3,-4,4,6,-5
Sa ugtP lethal,0,5,5,2,-1,0,14,-1
PrP UTR inh,-15,-12,-12,-17,-41,1,-12,-6
RN4220 kill,3.9,5.5,3.6,1.8,7.5,3.1,6.0,2.4
Autofluor counter,5600,9989,3738,9745,10021,6108,6129,3037

65) CCC(Oc1ccccc1F)C(=O)NCCN1CCOCC1 (stereo unspecified)
66) COc1ccccc1C(=O)NNC(=O)c1ccc(Cl)cc1
67) CCOC(=O)c1nnn(-c2nonc2N)c1COc1ccccc1
68) O=S(=O)(NCC(c1ccc2c(c1)OCO2)N1CCOCC1)c1ccccc1 (stereo unspecified)
69) O=c1[nH]c2ccc(Cl)cc2c(O)c1Cc1ccccc1
70) CCNS(=O)(=O)c1ccc(-c2ccc(-n3cnnn3)cc2)cc1
71) COc1cc(CC(=O)NCc2ccc3c(c2)OCO3)cc(OC)c1OC
72) CC(C)CCN1C(Nc2ccccc2)=NC[C@@H]1Cc1ccccc1
73) CCOC(=O)C1CCN(C(=O)COc2cccc3ccccc23)CC1
74) Cc1ccc(NC2CCCN(C(=O)CCn3nccc3C)C2)cc1C (stereo unspecified)
assay / compound,65,66,67,68,69,70,71,72,73,74
BJeLR viability,10,0,-2,-3,8,1,-9,5,-1,1
Mtb hypoxia rep,-5,9,15,.,8,8,.,.,-5,-3
Mtb hypoxia rep growth,7,-6,-20,.,8,3,.,.,19,12
Sa ugtP lethal,4,-1,16,.,0,8,-1,.,2,-3
PrP UTR inh,-22,-23,-5,-30,-23,-12,-12,-24,-1,-2
RN4220 kill,4.0,1.9,21,.,2.4,8.0,-1.0,.,0.8,-2.9
Autofluor counter,3501,4367,2384,?,4397,3765,4657,4114,5568,5863
